Ecoli growth: E. coli growth inhibition, primary screen, OD600; Escherichia coli growth, 23 h; stronger effect = lower value; OD600 absorbance (test concentration not listed); actives 0.21% (n = 330,000); AID 1053175, 2014;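 active = OD600 absorbance below the run mean of sample wells minus 3.6 SD, in any replicate, cut at about 0.56 in these data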;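 note: stock transfer was 300 nL into about 60 µL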
Beta2AR agonist: beta2AR agonists driving receptor internalization, primary screen, cell-based, FAP fluorogen, flow cytometry; response, % (test concentration not listed); Am2.2-beta2AR cells; reference of the scale not given here; actives 0.43% (n = 340,000); Beta-2 adrenergic receptor (Homo sapiens), P07550;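 active = response above a set limit, near 3 SD of response in nonfluorescent compounds, cut at about 42% in these data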;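 note: stock transfer was 100 nL into about 11 µL; a reference agonist was the positive control; negative values mostly stem from fluorescent compounds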
Target sequence (P07550 whole entry, looked up): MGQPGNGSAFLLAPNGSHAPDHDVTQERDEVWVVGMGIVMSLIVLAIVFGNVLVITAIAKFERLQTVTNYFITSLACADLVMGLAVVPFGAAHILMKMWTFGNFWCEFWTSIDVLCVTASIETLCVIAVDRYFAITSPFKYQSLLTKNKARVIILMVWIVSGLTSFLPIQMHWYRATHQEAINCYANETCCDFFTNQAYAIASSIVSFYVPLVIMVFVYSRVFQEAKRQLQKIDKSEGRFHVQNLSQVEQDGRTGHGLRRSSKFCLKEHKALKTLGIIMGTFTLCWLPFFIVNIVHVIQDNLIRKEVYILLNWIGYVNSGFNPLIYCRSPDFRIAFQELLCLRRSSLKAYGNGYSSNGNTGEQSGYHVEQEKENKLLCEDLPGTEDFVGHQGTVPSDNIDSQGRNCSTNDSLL
HNF4A DNA FP: change in binding of human HNF4A to DNA, primary screen, biochemical, fluorescence polarization, FITC-DNA. 1 h. Hepatocyte nuclear factor 4-alpha (Homo sapiens), P41235. actives 0.3% (n = 360,000). activity change, % at 10 µM. AID 1224865, 2016; in the data active = activity change above about 30%, passing the limit was not always enough;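 note: controls were the assay level and a saturating level of protein; the project sought stronger binding though the title names inhibitors; some compounds called inactive have numbers as strong as hits; positive values seem to mean higher polarization but the record does not say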
UCH37 inh: inhibitors of human UCH37 deubiquitinase, primary screen, biochemical, Ub-AMC cleavage, fluorescence; purified proteasome/UCH37; inhibition, % (test concentration not listed); actives 0.33% (n = 330,000); AID 588478, 2011;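 active = mean of two replicates above 20%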;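 note: 0% = compound-free wells with enzyme and 100% = wells lacking proteasome; stock transfer was 100 nL into about 20 µL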
Target sequence (Q9Y5K5 whole entry, looked up): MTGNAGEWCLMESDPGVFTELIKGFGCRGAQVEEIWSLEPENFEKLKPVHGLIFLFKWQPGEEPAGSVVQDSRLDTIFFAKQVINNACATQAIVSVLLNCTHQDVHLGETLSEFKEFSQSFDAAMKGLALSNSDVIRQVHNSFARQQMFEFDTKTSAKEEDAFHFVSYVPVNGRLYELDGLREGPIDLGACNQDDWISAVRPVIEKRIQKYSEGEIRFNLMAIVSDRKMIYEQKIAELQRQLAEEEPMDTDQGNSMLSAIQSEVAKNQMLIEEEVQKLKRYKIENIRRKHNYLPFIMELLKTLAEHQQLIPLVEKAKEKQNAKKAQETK
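Material: Human UCH37 enzyme supplied as purified proteasome complex | Schedule: 30 min compound-proteasome preincubation then 25 min substrate reaction, room temperature | Detection: AMC fluorescence from Ub-AMC cleavage, excitation 355 nm, emission 460 nm | Benchmarks: Wells without proteasome as full block, compound-free enzyme plus substrate as uninhibited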
Ecoli rRNA inh: reduced GFP signal of wild-type E. coli, primary screen, bacterial rRNA inhibitor project, GFP/RFP fluorescence, OD600, single point; E. coli WT GFP vs humanized-ribosome RFP mutants, 24 h; stronger effect = lower value; DMSO median 0, no signal -100; GFP signal change (wild-type ribosome), % (no concentration beside the values); actives 1.6% (n = 350,000);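 active = significant combined selectivity score with lowered wild-type GFP, culture density cut under 30%, mutant RFP and density less affected; inactive = any of these conditions unmet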; note: one replicate is shown; some compounds called inactive have numbers as strong as hits
ALR H2O2 inh: inhibitors of human ALR sulfhydryl oxidase, primary screen, biochemical, H2O2 detection, HRP-luminol luminescence, single point. FAD-linked sulfhydryl oxidase ALR (Homo sapiens), P55789. AID 485317, 2010. actives 3.8% (n = 290,000). inhibition, % (concentration not given with the values). purified ALR, DTT oxidation;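 active = mean and each replicate at 75% or more; inconclusive = only one of the two met; inactive = neither met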;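 note: stock transfer was 7.5 nL into about 7.5 µL; 0% = neutral wells and 100% = wells with inactivated enzyme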
FGF22 binding: binders of human FGF22 protein, primary screen, FGF22 synaptogenesis inhibitor project, biophysical, thermal shift, single point. AID 651658, 2012. Fibroblast growth factor 22 (Homo sapiens), Q9HCT0. calls only at 9.99 µM. recombinant FGF22 thermal shift, SYPRO orange fluorescence; percent of sucrose octasulfate shift, DMSO zero. actives 1.5% (n = 340,000);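 active = melting point raised past a set limit in the mean and every replicate; inconclusive = no clear call; three in four hits are not shown here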
Target sequence (Q9HCT0 whole entry, looked up): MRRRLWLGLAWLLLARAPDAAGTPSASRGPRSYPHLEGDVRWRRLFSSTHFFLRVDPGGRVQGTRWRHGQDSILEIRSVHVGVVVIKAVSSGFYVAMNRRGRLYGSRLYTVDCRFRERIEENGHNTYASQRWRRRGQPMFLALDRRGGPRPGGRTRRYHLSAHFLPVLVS
Ecoli rRNA inh OD600: recorded beside Ecoli rRNA inh, whose call it bears; OD600 change, %; measured here: OD600 growth;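 optical density of the mix in the first replicate; 0 = DMSO median and -100 = no signal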
Ecoli rRNA inh RFP: further read-out of Ecoli rRNA inh, marked with its call; RFP signal change, %; measured here: RFP humanized mutant strains;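 first replicate; 0 = DMSO median and -100 = no signal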
The depositor's hits bear a star; i = inactive; u = inconclusive; x = no result given; & = joins results of further samples. These rows are one share of the data. The share of hits here may be higher or lower than overall.

canonical_smiles	HNF4A DNA FP	Beta2AR agonist	ALR H2O2 inh	Ecoli rRNA inh RFP	Ecoli rRNA inh	Ecoli growth	UCH37 inh	FGF22 binding	Ecoli rRNA inh OD600
O=C(NCc1nc2ccccc2[nH]1)c1cc2ccccc2oc1=O	-1.5	-15	-3	x	x	0.71	2.1	x	x
COc1ccc(CNS(=O)(=O)c2ccc3c(c2)CC(C)N3C(=O)C2CC2)cc1 (stereo unspecified)	3.9	-6	-4	0.0	5	0.65	-0.6	i	5
Cc1nc(-c2noc(-c3ccc(Cl)cc3)n2)c(C(F)(F)F)o1	2.9	4	-3	1.7	7	0.66	5.7	i	1
Cc1csc(=N)n1-c1ccc(Cl)cc1	0.7	10	96*	2.5	-2	0.61	1.6	i	0
COc1ccc(OC)c(CCNC(=O)c2ccc3c(c2)N(Cc2ccc(F)cc2)CCS3)c1	0.4	10	0	x	x	0.7	-78	x	x
CCNC(=O)C1(C)CCCCN1Cc1ccc(C#N)cc1 (stereo unspecified)	0.5	x	x	1.8	12	x	x	i	19
CCC(=O)Nc1ccc(C(=O)CSc2nnc(-c3ccc(NS(=O)(=O)CC)cc3)o2)cc1OC	3.4	4	-2	-0.5	15	0.69	4.2	i	3
O=C(CC1SC(N2CCCC2)=NC1=O)Nc1ccc(C(=O)NCCc2ccc(F)cc2)cc1 (stereo unspecified)	6.1	-5	0	-2.2	8	0.67	2.0	i	6
CC(=O)NC(Cc1cccc(F)c1)C(=O)NC1CCN(C(=O)Nc2ccc(C)cc2)CC1 (stereo unspecified)	1.8	8	x	-1.1	8	0.66	0.6	i	11
Cc1ccc(S(=O)(=O)N2CCCCC2C)cc1[N+](=O)[O-] (stereo unspecified)	2.0	2	-8	0.5	2	0.66	-2.1	i	3
Cc1ccc(/C=N/NC(=O)c2ccco2)s1	-0.5	6	-7	x	x	x	x	x	x
COc1cccc(C2CC(c3ccccc3Cl)n3nnnc3N2)c1 (stereo unspecified)	5.7	-1	-2	x	x	0.67	1.8	x	x
Cc1ccc(CNC(=O)c2ccc(N3CCC4(CC3)CC(c3cccc(Br)c3)=NO4)c(NC(=O)c3c(Cl)cccc3Cl)c2)cc1	1.9	0	-3	4.9	6	0.73	2.1	i	9
Cn1c(=O)c2cc(S(=O)(=O)NC(Cc3ccccc3)C(=O)NCc3ccco3)ccc2n(C)c1=O (stereo unspecified)	2.5	-4	-1	1.3	2	0.75	2.8	i	-4
S=C(Nc1ccc(Cl)c(Cl)c1)N1CCN(c2ccccn2)CC1	2.4	-5	-8	3.7	-8	0.65	0.0	i	-4
O=C(CNC1CCN(Cc2ccccc2)CC1)Nc1ccc(S(=O)(=O)N2CCCCC2)cc1	0.0	6	-1	-3.9	8	0.67	2.0	i	3
COc1ccc(Cc2nc3ccccc3[nH]2)cc1OC	0.0	-7	x	-1.8	11	0.69	2.4	i	-12
Cc1ccc(SC(C)C(=O)Nc2ccc(S(=O)(=O)N3CCOCC3)cc2)cc1 (stereo unspecified)	-1.9	-1	x	x	x	0.71	3.1	x	x
Cc1ccc2oc3c(c(=O)c2c1)C(c1cccc(O)c1)N(c1ccccn1)C3=O (stereo unspecified)	-3.6	-15	-16	3.6	-3	0.74	4.6	x	-3
O=C(Nc1ccc(F)cc1)c1ccc2nsnc2c1	4.2	4	3	-2.4	12	0.66	4.1	i	21
COc1cc(C2c3c(oc4ccccc4c3=O)C(=O)N2c2nccs2)ccc1O (stereo unspecified)	-3.7	-24	x	5.4	10	0.67	6.4	i	16
COc1ccc(CCn2c(C)cc(C(=O)CSc3nnnn3C)c2C)cc1	1.8	-4	-7	x	x	0.74	-4.2	x	x
O=C(NCc1cc(Cl)cc(Cl)c1)c1ccc2nc([C@@H]3O[C@H](CO)[C@H](O)[C@H](O)[C@H]3O)[nH]c2c1	5.7	x	x	0.8	3	x	x	i	-6
CCS(=O)(=O)N1Cc2ccccc2CC1C(=O)NCC12CC3CC(CC(C3)C1)C2 (stereo unspecified)	3.0	-12	-11	x	x	0.7	2.6	x	x
CC(C)CC1Nc2ccc(C(=O)NCCCN3CCOCC3)cc2NC1=O (stereo unspecified)	1.1	-10	-23	1.4	1	0.7	-11	i	8
O=C(O)c1ccc(N/N=C/c2ccc(-c3ccc(Br)cc3)o2)cc1	-5.0	10	x	-11	-27	x	x	i	-39
Cc1cc(C(=O)OCC(=O)Nc2c(Cl)cccc2Cl)c(C)o1	1.8	1	x	-1.4	4	0.71	0.8	i	7
COc1ccc(C2C(C(=O)c3ccco3)=C(O)C(=O)N2c2nnc(C)s2)cc1 (stereo unspecified)	-16	-5	4	12	7	0.7	7.3	i	5
C[C@@H](OC(=O)c1[nH]cnc1C(=O)N1CCN(C(=O)OC(C)(C)C)CC1)c1ccccc1	0.4	-2	0	-1.2	-6	x	4.6	i	-11
CCOC(=O)c1c(C)c(C(=O)NCc2ccc3c(c2)OCO3)c(C)n1C	0.9	-3	x	x	x	0.76	-0.6	x	x
CCOc1ccccc1C1C(C#N)=C(N)Oc2n[nH]c(CC)c21 (stereo unspecified)	2.6	15	u	-0.5	4	0.66	2.9	i	1
O=C(CCC(=O)n1ncc2ccccc21)NCc1ccc(F)cc1	0.5	-1	-2	-6.7	4	0.77	-0.5	i	11
CCOc1ccc(/C=C2\SC(=S)N(CCCC(=O)NCCCN3CCOCC3)C2=O)cc1	1.8	3	-1	0.5*	-21*	0.66	9.3	i	-5.4*
CCCNC(=O)C(Cc1ccc(I)cc1)NC(=O)c1ccc(C#N)cc1 (stereo unspecified)	2.7	3	30	1.1	-3	0.8	3.8	i	1
COc1cc(NS(=O)(=O)c2cc3[nH]c(=O)c(=O)[nH]c3cc2C)cc(OC)c1OC	1.8	-4	x	-1.9	5	0.73	6.6	i	10
COC(=O)c1cc(Br)c(=O)n(Cc2ccc(OC)c(OC)c2)c1	0.3	-6	-18	x	x	0.76	-0.6	x	x
CC(C)NC(=O)N(C)C[C@@H]1OCc2ccccc2-c2c(n(C)c3ccccc23)C(=O)N([C@@H](C)CO)C[C@@H]1C	4.0	x	x	1.0&-1.7	13&-3	x	x	i	-1&-9
Cc1cccc(-n2c(CNC(=O)COc3ccccc3)nnc2SCC(=O)Nc2nccs2)c1	-1.1	9	-4	x	x	0.69	0.8	x	x
Cn1ncc(Br)c1C(=O)N1CCCCCC1	2.0	-5	-1	-2.3	0	x	x	i	2
Clc1ccc(C2[C@H]3CN(Cc4ccc(-c5ccccc5)cc4)[C@H](c4ccccc4)C34CC2(c2ccccc2)C4)cn1 (stereo partly specified)	x	x	-2	4.1	6	x	1.7	i	11
Cn1c(CCNC(=O)c2ccco2)nc2cc(NC(=O)NC3CCCCC3)ccc21	1.4	-4	-2	x	x	0.69	1.7	x	x
Cc1ccc(S(=O)(=O)N(C)c2ccc(C(=O)N3CCOCC3)cc2)cc1	1.1	0	x	-2.1	4	0.65	1.8	i	11
CN(Cc1ccccc1)S(=O)(=O)c1ccc(Cl)c(C(=O)N2CCOCC2)c1	-3.5	x	x	-0.8	6	x	x	i	5
CCOC1=C2CN(S(=O)(=O)c3ccc(C)cc3)[C@@H](c3cccs3)C[C@H]2[C@H]2C(=O)N(c3ccccc3)C(=O)[C@H]2C1	2.4	x	x	8.3	6	x	x	i	9
Cc1cc(Nc2cccc(F)c2)nc(-c2ccccc2O)n1	0.2	12	0	x	x	0.71	-5.8	x	x
O=C(NCC(c1ccco1)N1CCOCC1)c1ccc(F)c(F)c1 (stereo unspecified)	0.3	-6	0	-2.0	-2	0.68	3.6	i	-5
O=C(CNC(c1ccccc1)c1ccccc1)Nc1ccccc1Br	-2.5	4	-1	-4.0*	-33*	0.69	1.6	i	-26*
COc1cc(/C=N/NC(=O)CSCc2ccc([N+](=O)[O-])cc2)cc(OC)c1OC	1.9	2	98*	x	x	x	x	x	x
CC(=O)c1ccc(NC(=O)CSc2nc(=O)cc(N)n2-c2ccccc2)cc1	0.2	-6	99*	6.9	3	0.69	1.5	i	9
CCC(=O)c1ccc(OCc2cn(CC(=O)c3ccc(O)cc3)nn2)cc1	-4.1	-6	x	0.7	-14	x	x	i	-12

Following part.
canonical_smiles	HNF4A DNA FP	Beta2AR agonist	ALR H2O2 inh	Ecoli rRNA inh RFP	Ecoli rRNA inh	Ecoli growth	UCH37 inh	FGF22 binding	Ecoli rRNA inh OD600
CCc1ccc2[nH]c(=O)c(CN(CCN(CC)CC)C(=S)NCc3ccco3)cc2c1	7.0	13	-42	3.5	10	0.64	-4.4	i	5
CC(NC(=O)c1ccccc1F)c1nnc(SCC(=O)Nc2nccs2)n1C (stereo unspecified)	2.0	-6	x	-1.5	1	0.69	1.7	i	6
COCC1CCN(Cc2cn[nH]c2-c2cc3ccccc3o2)C1 (stereo unspecified)	-2.1	-3	-2	5.7	17	0.67	-0.7	i	3
Cc1cc(NS(=O)(=O)c2ccc(NC(=O)COc3ccc(Cl)cc3Cl)cc2)no1	3.0	3	7	-8.8	-17	0.64	1.3	i	-37
Cc1cc2nc(NC(=O)C3(C)CCN3C(=O)C(C)C)[nH]c2cc1C (stereo unspecified)	0.2	x	x	2.3	17	x	x	i	21
COCc1nnc(NS(=O)(=O)c2ccc(F)cc2)s1	6.8	-4	1	0.2	20	0.67	-1.6	i	8
C=CC[C@@H](CC(=O)N[C@H](CO)Cc1ccccc1)C(=O)N[C@H](COC(=O)[C@@H](CC=C)Cc1ccc(F)cc1)Cc1c[nH]c2ccccc12	0.1	16	2	8.8	0	x	3.3	i	-3
Cc1ccccc1NC(=S)NC(NC(=O)C(C)(C)C)C(Cl)(Cl)Cl (stereo unspecified)	-3.4	3	-2	x	x	0.71	2.1	x	x
Cc1ccc(C(=O)N/C(=C\c2cccs2)C(=O)NCCCn2ccnc2)cc1	3.0	1	-5	x	x	0.65	5.2	x	x

A second format for 4 compounds above.
> CC(NC(=O)c1ccccc1F)c1nnc(SCC(=O)Nc2nccs2)n1C (stereo unspecified)
- HNF4A DNA FP = 2.0
- Beta2AR agonist = -6
- ALR H2O2 inh = x
- Ecoli rRNA inh RFP = -1.5
- Ecoli rRNA inh = 1
- Ecoli growth = 0.69
- UCH37 inh = 1.7
- FGF22 binding = i
- Ecoli rRNA inh OD600 = 6

> Cc1ccccc1NC(=S)NC(NC(=O)C(C)(C)C)C(Cl)(Cl)Cl (stereo unspecified)
- HNF4A DNA FP = -3.4
- Beta2AR agonist = 3
- ALR H2O2 inh = -2
- Ecoli rRNA inh RFP = x
- Ecoli rRNA inh = x
- Ecoli growth = 0.71
- UCH37 inh = 2.1
- FGF22 binding = x
- Ecoli rRNA inh OD600 = x

> C=CC[C@@H](CC(=O)N[C@H](CO)Cc1ccccc1)C(=O)N[C@H](COC(=O)[C@@H](CC=C)Cc1ccc(F)cc1)Cc1c[nH]c2ccccc12
- HNF4A DNA FP = 0.1
- Beta2AR agonist = 16
- ALR H2O2 inh = 2
- Ecoli rRNA inh RFP = 8.8
- Ecoli rRNA inh = 0
- Ecoli growth = x
- UCH37 inh = 3.3
- FGF22 binding = i
- Ecoli rRNA inh OD600 = -3

> COCc1nnc(NS(=O)(=O)c2ccc(F)cc2)s1
- HNF4A DNA FP = 6.8
- Beta2AR agonist = -4
- ALR H2O2 inh = 1
- Ecoli rRNA inh RFP = 0.2
- Ecoli rRNA inh = 20
- Ecoli growth = 0.67
- UCH37 inh = -1.6
- FGF22 binding = i
- Ecoli rRNA inh OD600 = 8

Source: PubChem
